High-throughput results from PubChem.
Six1-Eya2 inh: inhibitors of human Six1/Eya2 interaction; Q15475+O00167; AlphaScreen GST-Six1/His-Eya2 binding, biochemical; hits give low values; control for the full effect not named in the record; activity change, % (test concentration not listed); 360,000 compounds, 0.56% hits; AID 651725; in the data active = activity change below about -65%; inconclusive = about -30% to -65%; inactive = above about -30%; also: % is scaled to controls: 0 for no effect and ±100 for the full control effect
Target sequence (O00167 whole entry, looked up): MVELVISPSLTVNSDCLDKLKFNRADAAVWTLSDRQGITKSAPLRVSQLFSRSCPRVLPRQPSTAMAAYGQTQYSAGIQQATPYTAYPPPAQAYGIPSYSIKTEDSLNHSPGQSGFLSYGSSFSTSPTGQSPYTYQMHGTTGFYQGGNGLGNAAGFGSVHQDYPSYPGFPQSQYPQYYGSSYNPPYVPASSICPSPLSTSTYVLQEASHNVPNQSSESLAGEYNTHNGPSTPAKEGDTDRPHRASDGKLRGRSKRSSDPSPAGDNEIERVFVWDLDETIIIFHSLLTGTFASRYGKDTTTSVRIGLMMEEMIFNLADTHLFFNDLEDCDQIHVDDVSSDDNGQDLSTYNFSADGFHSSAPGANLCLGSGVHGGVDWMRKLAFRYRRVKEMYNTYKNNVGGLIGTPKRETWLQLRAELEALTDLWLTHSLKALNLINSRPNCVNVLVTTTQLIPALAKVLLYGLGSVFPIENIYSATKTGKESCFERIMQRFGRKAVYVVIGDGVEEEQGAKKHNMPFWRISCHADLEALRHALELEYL
Target sequence (Q15475 whole entry, looked up): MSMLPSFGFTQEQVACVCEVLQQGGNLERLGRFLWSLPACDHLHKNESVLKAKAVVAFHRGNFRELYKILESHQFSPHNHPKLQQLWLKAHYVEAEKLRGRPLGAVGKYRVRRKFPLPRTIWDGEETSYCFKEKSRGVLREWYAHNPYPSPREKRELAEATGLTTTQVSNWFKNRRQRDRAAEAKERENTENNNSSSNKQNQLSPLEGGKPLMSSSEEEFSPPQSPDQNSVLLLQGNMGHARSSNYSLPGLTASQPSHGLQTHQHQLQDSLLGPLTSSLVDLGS
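Homogeneous AlphaScreen proximity assay pairing GST-Six1 with His-tagged Eya2 (added as 5X mix: 250 nM and 500 nM) in 50 mM Tris pH 8.0, 300 mM NaCl, 1 mM TCEP. Glutathione donor and nickel acceptor beads; 1 h, 37 °C, dark.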
TRPML1 inh: blocks the human TRPML1 channel; Q9GZU1; TRPML1-inducible cells, Ca2+ dye fluorescence, FDSS; hits give low values; inhibition of EC80 agonist-evoked calcium signal; activity change, negative = inhibition, % (concentration not given with the values); 390,000 compounds, 0.02% hits; AID 624415; in the data active means activity change below about -50%; inconclusive means about -30% to -50%; inactive means above about -30%;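 also: stimulus is agonist 54-4 at its EC80 concentration; % is scaled to controls: 0 for no effect and ±100 for the full control effect; the text of the record puts the active cut at -80%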
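TRPML1-DL cells, Tet-induced overnight (~16 h, 37 °C) at 1,500 cells/well, were loaded with Ca8 no-wash dye plus quencher for 45-90 min at room temperature. Compounds were pinned during FDSS kinetic reading; agonist 54-4 at EC80 (4 uM final) then added.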
CtBP-E1A inh: blocks the CtBP interaction with E1A. AlphaScreen GST-E1A/His-CtBP binding, 1536-well; hits give low values; control for the full effect not named in the record. activity change, % (concentration not given with the values). 340,000 compounds, 0.49% hits; in the data active means activity change below about -65%; inconclusive means about -30% to -65%; inactive means above about -30%; also: % is scaled to controls: 0 for no effect and ±100 for the full control effect
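In 5 uL wells, 23 nL compound meets equimolar GST-E1A and His-CtBP (5X stock 125 nM each) for 2 h, 37 °C. Beads (5X, 50 ug/mL) then 1 h, 37 °C, dark.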
PINK1 expr mod: modulators of PINK1 expression | 410,000 compounds, 0.2% hits | Potency, µM (doses to about 76.6 µM), inactives show at the top dose activation (PINK1 increase), most hits filed as activators | PINK1 immunofluorescence, high-content cytometry, 24 h; active = well fitted activation curve with a large enough effect; inconclusive = small, poorly fitted or top-dose-only effect; inactive = flat fitted curve, though single readings scatter; cell line not stated here;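 also: potency is read from the fitted curve at half-maximal effect; % of control where 0% means no effect; nearly all actives have a fitted effect of over 65% in size; a mitochondrial uncoupler was the plate control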
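Readout is PINK1 immunofluorescence, quantified alongside mitochondrial, cell and nuclear markers by laser-scanning microplate cytometry. Cells from a stable line were exposed to compound titrations (5 concentrations) for 24 hours, with CCCP controls.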
D2 ag: activates the human D2 dopamine receptor. 360,000 compounds, 0.084% hits. DiscoveRx PathHunter D2 beta-arrestin, luminescence, 90 min; 100% = 57 uM dopamine signal. activation, % (test concentration not listed); in the data active = activation above about 40%; inconclusive = about 15% to 40%; inactive = below about 15%; also: compound concentration not given in the record; the text of the record calls up to 30% inactive
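Agonist mode: compounds alone added to overnight-plated D2 PathHunter cells for 90 min at 37 C, with 57 uM final dopamine (EC100) defining full response. Beta-arrestin recruitment detected by chemiluminescent reagent, read after 1 h at ambient temperature.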
TRPML1 ag: human mucolipin-1 channel agonism; activation, % (test concentration not listed); AID 624414; 410,000 compounds, 0.12% hits; TRPML1-expressing cells, Ca2+ dye fluorescence, FDSS; host cell line not named in the record; reference of the full effect not given here; in the data active = activation above about 50%; inconclusive = about 30% to 50%; inactive = below about 30%; also: 0% is about no effect; the text of the record puts the active cut at 80%
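Kinetic FDSS Ca2+ read in Tet-induced TRPML1-DL cells (ABD Ca8 dye plus quencher, 45-90 min RT loading): baseline, then compound, then 110 s agonist window; EC80 agonist 54-4 at 4uM final added afterwards for a 110 s antagonist window.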
* hit, by the source's call; u = inconclusive; x = not tested or not shown; & = joins results of further samples; [ ] = dose if it differs, or a comment.

Every second line gives: Six1-Eya2 inh | D2 ag | TRPML1 inh | PINK1 expr mod | TRPML1 ag | CtBP-E1A inh
1) CC(C)COc1nc2ccccc2c(=O)n1OCC(=O)O
 : 2 | -3.2 | -4 | 0.8% | 1.5 | 0
2) CCOC(=O)c1c(NC(=O)CSc2cn(CCNC(=O)c3c(F)cccc3F)c3ccccc23)sc2c1CCC2
 : x | x | 0 | -0.9% | -0.2 | x
3) COc1cc2c(cc1OC)CN(C(=O)/C=C/c1ccccc1[N+](=O)[O-])CC2
 : -14 | -0.2 | 1 | 11% | 1.4 | -10
4) CCOC(=O)N1CCN(Cc2nc3cc([N+](=O)[O-])ccc3n2CC)CC1
 : 3 | 2.4 | x | 2.5% | x | 5
5) CS(=O)(=O)N1CCN(c2ccc(NC(=O)CSc3nnc(-c4ccco4)o3)cc2)CC1
 : -4 | 3.3 | 11 | 2.6% | 0.7 | 2
6) O=C(OCC(=O)N(C1CCCCC1)C1CCCCC1)c1cnccn1
 : -2 | -7.1 | -3 | -0.7% | -1.3 | -2
7) Cc1cc(C)c(OCC(=O)OCC(=O)N(C)C2CCS(=O)(=O)C2)c(C)c1 (stereo not drawn)
 : 15 | 0.0 | 0 | 3.4% | 0.5 | -16
8) COc1ccc(/C(C)=N/OCC(=O)N2CC3(C)CC2CC(C)(C)C3)cc1 (stereo not drawn)
 : -1 | -0.3 | -3 | 1.3% | -0.2 | 12
9) Cc1cc(F)ccc1S(=O)(=O)N1CCCOC1CNC(=O)C(=O)NC1CCCC1 (stereo not drawn)
 : 2 | -1.2 | 22 | 1.0% | 0.1 | -1
10) CCCN1CCN(C(=O)Nc2ccc(OCC)cc2)CC1
 : 2 | -5.8 | -5 | 2.7% | 3.8 | 7
11) Cc1ccc(S(=O)(=O)N2CCOCC2)cc1C(=O)Nc1cc(Cl)ccc1N1CCOCC1
 : -6 | -5.7 | 5 | 0.4% | -0.1 | -1
12) COc1ccc(OCCCC(=O)Nc2cccc(C(C)=O)c2)cc1
 : -1 | -7.8 | 12 | -0.9% | 0.5 | 0
13) CCCn1c(N)c(C(=O)COC(=O)CNC(=O)c2ccc(C)c(C)c2)c(=O)n(C)c1=O
 : -10 | -2.2 | -6 | 1.7% | -1.3 | x
14) COC(=O)c1ccc(N)nc1
 : 10 | -1.4 | -19 | -0.2% | 0.1 | 6
15) CCOC(=O)c1c(NC(=O)CSc2nc3ccccc3o2)sc(C(C)=O)c1C
 : -8 | 1.2 | 19 | 1.2% | 0.5 | 2
16) Cc1c(C#N)c(SCC(N)=O)nc2c1CCCC2
 : -7 | -2.2 | 25 | -2.0% | 0.6 | -2
17) O=C(Nc1cc2c(cc1C(=O)c1ccccc1Cl)OCCO2)c1ccc(Br)cc1
 : x | x | -6 | -0.4% | -0.5 | x
18) CCNC(=O)NC(=O)CSc1nc2ccccc2n1CC(C)C
 : 1 | -1.9 | -3 | 2.5% | -1.4 | 1
19) COCCNC(=O)c1cc(OC)c(OC)cc1[N+](=O)[O-]
 : 10 | -3.2 | 26 | -0.7% | 1.5 | 1
20) COC(=O)C1=C(C)NC(=O)C1(NS(=O)(=O)c1ccc(C)cc1)C(F)(F)F (stereo not drawn)
 : 3 | -1.8 | 6 | 7.2%[38.3 µM] | -0.4 | 5
21) CCOC(=O)CN(C(=O)CSc1nnc(C)n1-c1ccccc1)c1cccc([N+](=O)[O-])c1
 : 2 | -2.7 | -7 | u | -0.1 | 4
22) CC(C)(C)c1ccc(OCCCC(=O)NC2=NCCS2)cc1
 : 8 | -0.3 | 10 | 1.5% | 11 | -5
23) COc1ccc(NC(=O)CN2CCC(NC(=O)c3ccc(OC)cc3)CC2)cc1
 : 1 | -6.3 | 46 | -0.7% | 0.7 | -1
24) CSc1ccc(CCNC(=O)C(C)n2nc(C)c3sc4ccccc4c3c2=O)cc1 (stereo not drawn)
 : x | x | 2 | 4.0% | 1.4 | x
25) Cc1ccc(-c2nc3cc(C)c(Br)c(C)n3c2Cc2cccc(F)c2)cc1
 : -5 | -4.2 | x | 7.5% | -0.7 | -3
26) CC(=O)OCC1=C(C(=O)O)N2C(=O)C(NC(=O)c3ccc(COc4cccc(Cl)c4Cl)o3)C2SC1 (stereo not drawn)
 : -28 | -2.4 | -1 | 2.8% | -0.1 | -11
27) Cc1ccc(/C=C/C2=NN(C)C(=O)CC2)cc1
 : 2 | -7.8 | 2 | -2.0% | 1.2 | 11
28) C/C=C/C(=O)Nc1nnc(C(C)C)s1
 : -5 | -0.3 | 11 | 1.0% | -0.6 | 2
29) CC1CC(C)CN(S(=O)(=O)N2CCC(C(=O)NCCC3=CCCCC3)CC2)C1 (stereo not drawn)
 : -1 | 2.7 | -18 | 1.6% | 0.5 | x
30) CCCCN(C)C(=O)C1CCN(Cc2cccnc2)CC1
 : 1 | -0.4 | -3 | 4.4% | 0.7 | 3
31) O=C(C1=C[C@@H](c2ccc(C(F)(F)F)cc2)C[C@@H](OCCCCO)O1)N1CCN(Cc2ccc3c(c2)OCO3)CC1
 : -1 | -2.6 | 18 | 3.5% | -0.4 | -5
32) Cc1ccc(S(=O)(=O)Nc2nc3n(n2)C(c2ccc(Cl)cc2)CC(=O)N3)cc1 (stereo not drawn)
 : -4 | -1.1 | -4 | 0.4% | -1.3 | 2
33) Cc1ccc(CNC(=O)c2ccc[nH]2)cc1
 : 1 | -4.8 | -13 | -0.5% | -1.2 | -12
34) Fc1ccccc1Cc1ccc(Cl)nn1
 : 4 | -3.3 | 6 | 0.0% | -0.7 | -3
35) CCCN(CCC)CC(=O)Nc1cccc2c1OCO2
 : 8 | -1.4 | 20 | 3.2% | 1.2 | 1
36) COc1ccc(N(C(=O)c2cccnc2)S(=O)(=O)c2ccccc2)cc1
 : 6 | -2.0 | -4 | -0.7% | -1.1 | 2
37) Cc1ccc2c(cnn2C(=O)CCC(=O)N2CCCCC2C)c1 (stereo not drawn)
 : 4 | 1.7 | 2 | 0.0% | -0.2 | -1
38) CCOc1ccc(CNS(=O)(=O)c2cc3c(cc2C)NC(=O)CO3)cc1
 : x | x | u | -1.6% | 0.7 | x
39) CCOC(=O)C1(CC2CCCCO2)CCN(C(=O)Nc2ccc(SC)cc2)CC1 (stereo not drawn)
 : -1 | -3.7 | 1 | 0.3% | 0.3 | -1
40) Cc1ccccc1CCNC(=O)c1cc2ccccn2n1
 : x | x | 13 | 3.4% | -1.3 | x
41) COc1n[nH]c(C(=O)Nc2cc(F)ccc2C)c1[N+](=O)[O-]
 : 4 | -4.2 | 39 | 2.1% | 3.4 | 5
42) O=C(NNC(=S)NC(=O)c1cccc([N+](=O)[O-])c1)c1ccc(O)cc1
 : -8 | -6.0 | 8 | 2.7% | 0.4 | -11
43) CC(C)(C)C(=O)OC/C(N)=N/OC(=O)c1ccc(Cl)c(Cl)c1
 : 25 | 13 | -5 | 3.6% | -1.1 | x
44) COc1ccc(NC(=O)NCCCCc2ccccc2)cc1OC
 : -11 | -3.6 | 6 | 0.8% | 2.7 | -13
45) Cc1ccc2c(c1)c1c3n2CCN(CC#N)C3CCC1 (stereo not drawn)
 : -7 | -2.9 | -4 | 1.8% | 0.0 | -9
46) CCOc1ncccc1C(=O)Nc1ccccc1N1CCOCC1
 : -2 | 4.6 | 5 | -0.5% | -0.4 | 2
47) CCN1C(=S)N[C@@H](c2ccccc2)C(C(=O)OC)=C1C
 : 0 | -3.8 | 3 | 0.2% | 0.4 | 2
48) COc1ccc(N(C)S(=O)(=O)c2cccc(C(=O)Nc3ccc(-n4cnnn4)cc3)c2)cc1
 : -7 | 1.6 | -11 | 0.6% | 0.5 | -6
49) O=C(Oc1c(CN2CCOCC2)cc(Cl)c2cccnc12)c1ccc(F)cc1
 : -91* | -6.3 | -8 | -3.2% | -0.4 | -92*
50) COc1ccc2[nH]c3c(=O)n(CCc4ccccc4)cnc3c2c1
 : -3 | -5.9 | 1 | 5.3% | -0.1 | 1
51) CCOc1ccc(CNC23CN4CN(CN(C4)C2)C3)cc1
 : 1 | -0.4 | 0 | x | 0.4 | 10
52) O=[N+]([O-])c1cc(C(F)(F)F)ccc1-n1nnc2ccccc21
 : -3 | 1.2 | -11 | 3.8% | 4.3 | 21
53) O=c1cc(NS(=O)(=O)c2ccccc2)nc(SCc2ccc(Cl)cc2)[nH]1
 : 3 | -0.1 | 31 | 1.2% | 2.5 | -2
54) CC(=O)Nc1ccc(C2Nc3ccccc3C(=O)N2C2CCCCC2)cc1 (stereo not drawn)
 : 4 | 1.8 | 10 | x | -0.3 | -1
55) CSc1ccc(/C=C/C(=O)N2CCCN(C)CC2)cc1
 : 0 | -1.1 | 12 | -1.6% | 1.0 | 0
56) Cc1nc2ccc(Cl)cn2c1C(=O)NN
 : -5 | 3.4 | 17 | -2.3% | 0.3 | 1
57) COc1ccc(-c2cn3nc(SCC(=O)NC4CCCCC4)ccc3n2)cc1
 : 3 | -4.6 | 50 | 2.3% | 1.0 | -2
58) CC1(C(=O)NS(=O)(=O)c2cccc(F)c2)CCN1C(=O)Cc1cc(F)ccc1F (stereo not drawn)
 : 2 | -6.0 | x | 2.6% | -0.5 | -2
59) Cc1ccc(Nc2nc3ccccc3[nH]2)nc1
 : -8 | -1.7 | 12 | 2.1% | 1.3 | -15
60) Cc1cccc(-c2nc(CSCC(=O)NCCc3ccc(Cl)cc3)c(C)o2)c1
 : x | x | 43 | -1.5% | 4.0 | x

More compounds.
Every second line gives: Six1-Eya2 inh | D2 ag | TRPML1 inh | PINK1 expr mod | TRPML1 ag | CtBP-E1A inh
61) CCCC(=O)N1CC(=O)Nc2ccc(Br)cc2C1c1ccc(F)cc1 (stereo not drawn)
 : -6 | -3.0 | 9 | 3.5% | 1.3 | 5
62) Cc1nc2sccn2c(=O)c1S(=O)(=O)Nc1ccc(N2CCN(S(C)(=O)=O)CC2)cc1
 : 0 | 11 | -8&3 | 0.2%&-2.3% | 0.2&0.1 | -3
63) CCCCNC(=O)C1(C)CCN1C(=O)c1csnn1 (stereo not drawn)
 : 0 | -4.1 | x | 2.1% | -0.5 | 2
64) COc1ccc(-c2csc(C(C)(O)c3cccc(F)c3)n2)cn1 (stereo not drawn)
 : 0 | -5.2 | x | 6.9% | -0.5 | 7

Limited to TRPML1 ag and TRPML1 inh, for some of the entries so far:
| cpd | mol | TRPML1 ag | TRPML1 inh |
| --- | --- | --- | --- |
| 61 | CCCC(=O)N1CC(=O)Nc2ccc(Br)cc2C1c1ccc(F)cc1 (stereo not drawn) | 1.3 | 9 |
| 62 | Cc1nc2sccn2c(=O)c1S(=O)(=O)Nc1ccc(N2CCN(S(C)(=O)=O)CC2)cc1 | 0.2&0.1 | -8&3 |

In the list so far, 3 have a thiophene ring, fused or not:
Every second line gives: Six1-Eya2 inh | D2 ag | TRPML1 inh | PINK1 expr mod | TRPML1 ag | CtBP-E1A inh
2) CCOC(=O)c1c(NC(=O)CSc2cn(CCNC(=O)c3c(F)cccc3F)c3ccccc23)sc2c1CCC2
 : x | x | 0 | -0.9% | -0.2 | x
15) CCOC(=O)c1c(NC(=O)CSc2nc3ccccc3o2)sc(C(C)=O)c1C
 : -8 | 1.2 | 19 | 1.2% | 0.5 | 2
24) CSc1ccc(CCNC(=O)C(C)n2nc(C)c3sc4ccccc4c3c2=O)cc1 (stereo not drawn)
 : x | x | 2 | 4.0% | 1.4 | x
